# EPAC1 agonist: human EPAC1 agonism, validation | O95398 | EPAC1 Rap1b BODIPY-GDP exchange, fluorescence | Potency, µM, for the others: max response, positive = active, actives largely listed as activators | 16,000 compounds, 1% hits; active = well fitted activation curve with a large enough effect; inconclusive = small, poorly fitted or top-dose-only effect; inactive = no such curve, though single readings can be large or run the other way;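 note: nearly all actives have a fitted effect of over 70% in size; series mostly up to about 76 or 150 µM; scaled to a cAMP control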
# Target sequence (O95398 whole entry, looked up): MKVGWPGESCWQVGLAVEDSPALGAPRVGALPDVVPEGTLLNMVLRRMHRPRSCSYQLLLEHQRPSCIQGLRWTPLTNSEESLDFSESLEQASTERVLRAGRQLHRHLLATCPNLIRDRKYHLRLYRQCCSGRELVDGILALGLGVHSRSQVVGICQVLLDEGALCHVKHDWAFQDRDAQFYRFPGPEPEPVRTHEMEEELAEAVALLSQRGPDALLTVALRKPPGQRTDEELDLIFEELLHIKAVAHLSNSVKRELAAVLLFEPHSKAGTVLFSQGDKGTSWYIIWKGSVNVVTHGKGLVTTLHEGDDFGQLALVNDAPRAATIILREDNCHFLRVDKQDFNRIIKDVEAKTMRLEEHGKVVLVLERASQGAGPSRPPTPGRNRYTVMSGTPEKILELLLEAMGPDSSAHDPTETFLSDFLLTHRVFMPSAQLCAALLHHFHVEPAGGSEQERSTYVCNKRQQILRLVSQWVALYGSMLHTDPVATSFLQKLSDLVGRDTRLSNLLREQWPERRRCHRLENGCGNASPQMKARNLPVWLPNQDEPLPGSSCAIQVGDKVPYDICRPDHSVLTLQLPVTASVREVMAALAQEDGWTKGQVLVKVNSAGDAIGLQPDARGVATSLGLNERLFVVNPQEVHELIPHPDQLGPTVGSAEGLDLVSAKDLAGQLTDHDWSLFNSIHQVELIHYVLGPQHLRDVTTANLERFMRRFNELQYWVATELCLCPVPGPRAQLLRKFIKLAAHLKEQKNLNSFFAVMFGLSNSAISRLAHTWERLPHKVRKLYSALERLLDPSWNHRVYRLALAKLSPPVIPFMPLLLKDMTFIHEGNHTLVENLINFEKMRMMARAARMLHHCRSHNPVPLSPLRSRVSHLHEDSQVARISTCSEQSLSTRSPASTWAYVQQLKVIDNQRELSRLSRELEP
# * = called active by the depositor; ? = inconclusive; & = joins results of further samples; [ ] = dose if it differs, or a comment. % is set by controls: 0 for no effect and ±100 for the full control effect; potency is the fitted concentration of half-maximal effect.
SMILES,EPAC1 agonist
COCc1c(C(C)C)nc(C(C)C)c(/C=C/[C@@H](O)C[C@@H](O)CC(=O)O)c1-c1ccc(F)cc1,-67%[inhibitor]
COCCn1c(=O)c(-c2cccs2)nc2cnc(OC)nc21,-37%[inhibitor]
OC[C@H]1NC[C@@H](O)[C@@H]1O,-1%
CCCCCCCCc1ccc(-c2ccc(C(=O)O)cc2)cc1,-19%
CCN1CCN(C(=O)c2sc3ncnc(NCC4CCCO4)c3c2C)CC1 (stereo unspecified),-19%
COc1ccc2ccc(=O)oc2c1CC=C(C)C,-40%
O=C(CCCN1CCC(O)(c2ccc(Br)cc2)CC1)c1ccc(F)cc1,-1%
COc1cccc(-c2nc(NCCc3c[nH]c4ccc(OC)cc34)c3ccccc3n2)c1,?
CC(C)C[C@@H](CSc1ccccc1)N1CCN(CC(C)C)CCC1=O,-50%[inhibitor]
O=S(=O)(N(Cc1ccccc1)[C@@H](CO)Cc1ccccc1)N(Cc1ccccc1)[C@@H](CO)Cc1ccccc1,-5%
COC(=O)C1OC(=O)C2OC23[C@]2(C)C(OC(C)=O)CC4C(C)(C)C(=O)CC[C@]4(C)C2CC[C@@]13C (stereo partly specified),4%
CC(C)Cc1nc2cc(NS(=O)(=O)N(C)C)cc(C(=O)N3CCc4sccc4C3)c2n1C,7%
Cc1c(C(=O)NC2CCCC2)sc2ncnc(NCCN(C)C)c12,5%
Cc1cnc(CNc2cc(-c3c(C)noc3C)ncn2)cn1,5%
Cc1cnc(-n2ncc(C(=O)NCC3COCCO3)c2C2CC2)nc1-c1cccs1 (stereo unspecified),-13%
O=C(c1ccccc1-n1cccn1)N1CCOc2ccc(CN3CCOCC3)cc2C1,-1%
COCCn1c(=O)c(-c2ccc(OC)cc2)nc2cnc(N3CCN(C)CC3)nc21,-1%
Cc1cnc(CNc2ncncc2-c2ccccc2CN(C)C)cn1,16%
O=C1CCN(Cc2ccccc2)CCN1[C@H](CSc1ccccc1)Cc1ccccc1,?
COc1ncc2nc(-c3ccc(F)cc3)c(=O)n(C3CC3)c2n1,-47%[inhibitor]
O=C(O)CCC(=O)C(=O)O (tested in a mixture with another compound),-16%
Cc1cc(-c2ccnc(-n3ncc(C(=O)N(C)Cc4nccs4)c3C)n2)c(C)s1,0%
Cc1ccc(CN2CCC(C3(c4ccccn4)NC(=O)N(CC4CCCO4)C3=O)CC2)cc1C (stereo unspecified),-9%
O=C(c1ccc(OCCCc2cnc[nH]2)cc1)C1CC1,-5%
COC(=O)CCCC[C@@H]1SC[C@@H]2NC(=O)N[C@@H]21,2%
COC(=O)C[C@H]1c2cc(C(F)(F)F)ccc2S(=O)(=O)N1C(C)(C)C,-64%[inhibitor]
Cc1cc2ccccc2c[n+]1CC(=O)c1ccc(F)cc1,10%
Cc1cc2nc(N3CCC(NC(C)c4nc(-c5ccccn5)no4)CC3)nc(C)c2cc1C (stereo unspecified),-9%
COc1cccc(Cn2c(=O)c(-c3cccc(Cl)c3)nc3cncnc32)c1,-4%
COc1ccc(SC[C@H](Cc2ccccc2)N2CC[C@@H](C)CCC2=O)cc1,5%

# Seven compounds out of the list, ordered by formula weight, rising.
SMILES,EPAC1 agonist
O=C(c1ccc(OCCCc2cnc[nH]2)cc1)C1CC1,-5%
Cc1cnc(CNc2cc(-c3c(C)noc3C)ncn2)cn1,5%
CCCCCCCCc1ccc(-c2ccc(C(=O)O)cc2)cc1,-19%
COc1ncc2nc(-c3ccc(F)cc3)c(=O)n(C3CC3)c2n1,-47%[inhibitor]
O=C(CCCN1CCC(O)(c2ccc(Br)cc2)CC1)c1ccc(F)cc1,-1%
Cc1cnc(-n2ncc(C(=O)NCC3COCCO3)c2C2CC2)nc1-c1cccs1 (stereo unspecified),-13%
O=S(=O)(N(Cc1ccccc1)[C@@H](CO)Cc1ccccc1)N(Cc1ccccc1)[C@@H](CO)Cc1ccccc1,-5%

# (listing goes on)
SMILES,EPAC1 agonist
O=c1[nH]c2cc(Cl)c(Cl)cc2[nH]c1=O,?
C=C[C@](C)(O)CCC1C(=C)CCC2[C@@](C)(CO)CCC[C@@]12C (stereo partly specified),-30%
CCCCCCCCCCCCCCCCCCCCCC(=O)Nc1ccn([C@@H]2O[C@H](CO)[C@@H](O)[C@@H]2O)c(=O)n1,-30%[inhibitor]
CS(=O)(=O)Nc1cccc(-c2nc(Nc3ccc(F)cc3)c3ccccc3n2)c1,-31%
COC(=O)CC1C(C)(C)C(=O)C2CC3C4=CC(=O)OC(c5ccoc5)[C@]4(C)CCC3[C@@]1(C)C2=O (stereo partly specified),-10%
CN(C)C(=O)c1ccc(-c2nccc(-n3ccnc3)n2)cc1,-21%
O=C(Oc1ccccc1)N1CCC2(CCCN(c3ccccc3)C2)CC1,?
CN(C)c1ncc2nc(-c3ccc(F)cc3)c(=O)n(-c3ccccc3)c2n1,100µM*
Cc1c(C(=O)NCC2(N3CCOCC3)CCCC2)cnn1-c1nccc(-c2ccccc2F)n1,1%
CCNc1ncc2nc(-c3ccccc3)c(=O)n(Cc3cccs3)c2n1,-33%[inhibitor]
Cc1ccc2[nH]c3c(c2c1)CN(C(=O)CC1(c2ccccc2)CC(=O)N(Cc2cccnc2)C1=O)CC3 (stereo unspecified),7%
CCOC(=O)N1CCC(=C2c3ccc(Cl)cc3CCc3cccnc32)CC1,16%&3%&-30%&3%
O=C(C[n+]1ccccc1Br)c1ccc(-c2ccccc2)cc1,6%
Cn1c(=O)c(-c2cc(F)cc(F)c2)nc2cnc(Oc3ccccc3)nc21,-19%
OC[C@H]1O[C@@H](n2cnc3c(=S)nc[nH]c32)[C@H](O)[C@@H]1O,-30%[inhibitor]
O=C(C[C@H]1C(=O)N(Cc2ccccc2)C[C@@H]1Cc1ccccc1)Nc1ccccc1,-70%[inhibitor]
NC12CC3CC(CC(C3)C1)C2,4%&23%&-8%&-13%
CN(C)c1ccc(-c2cncnc2NCc2cccnc2)cc1,-35%[inhibitor]
CC(=C(CCOC(=O)C(C)C)SSC(CCOC(=O)C(C)C)=C(C)N(C=O)Cc1cnc(C)nc1N)N(C=O)Cc1cnc(C)nc1N,17%
O=S(=O)(c1ccccc1)N1CCC2(CCN(Cc3ccncc3)CC2)CC1,-34%[inhibitor]
CN1CCC(CN2c3ccccc3Sc3ccccc32)C1 (stereo unspecified),-40%[inhibitor]
OC[C@H]1O[C@@H](O[C@@H]2[C@@H](CO)O[C@](O)(CO)[C@H]2O)[C@H](O)[C@@H](O)[C@H]1O,-9%&-10%
C[C@H](O)C(=O)Nc1c(I)c(C(=O)NC(CO)CO)c(I)c(C(=O)NC(CO)CO)c1I,10%
CCC(=O)NCc1nc(-c2cccc(NC(=O)c3ccc(C)s3)c2)oc1C,-14%
OC1(c2cccnc2)CCN(Cc2ccc3c(c2)CN(Cc2ccc4nsnc4c2)CCO3)CC1,-14%
Cc1csc(-c2coc3cc(O[C@@H]4O[C@H](CO)[C@@H](O)[C@@H](O)[C@H]4O)ccc3c2=O)n1,-2%
O=C1CCC[C@@H]2CC(Nc3ccccc3)C[C@@H]3CCN1[C@H]23 (stereo partly specified),-78%[inhibitor]
COc1cc(C(O)C(=O)O)ccc1O (stereo unspecified),2%&-5%
COc1ccc2c(c1)c(CC(=O)O)c(C)n2Cc1ccc(Cl)cc1,1%
OC[C@H]1O[C@@H](OCCc2ccc(O)cc2)[C@H](O)[C@@H](O)[C@@H]1O,-8%
CC1CCN=C(N)S1 (stereo unspecified),15%
CN(C)c1ccc(/C=C/c2ccnc3c(Cl)cccc23)cc1,112µM*
COC(=O)C1CCCCN1Cc1nc(N2CCCCC2)c2cc(OC)c(OC)cc2n1 (stereo unspecified),-8%
CCCCCCOc1ccc(C(=N)N(CCCC)CCCC)c2ccccc12,-38%[inhibitor]
CO[C@H]1C[C@@H]2CC[C@@H](C)[C@@](O)(O2)C(=O)C(=O)N2CCCC[C@H]2C(=O)O[C@H]([C@H](C)C[C@@H]2CC[C@@H](OC(=O)C(C)(CO)CO)[C@H](OC)C2)CC(=O)[C@H](C)/C=C(\C)[C@@H](O)[C@@H](OC)C(=O)[C@H](C)C[C@H](C)/C=C/C=C/C=C/1C,-44%[inhibitor]
CC(C)CCCC(C)C1CCC2C3CC=C4CC(=O)CC[C@@]4(C)C3CC[C@@]12C (stereo partly specified),-108%[inhibitor]
CC(C)C[C@H](NC(=O)[C@@H](O)[C@H](N)Cc1ccccc1)C(=O)O,-2%&-1%&9%
CC(C)(C)NC(=O)[C@H]1CC[C@H]2[C@@H]3CC[C@H]4NC(=O)C=C[C@]4(C)[C@H]3CC[C@]12C,-6%
O=C(C[n+]1csc2ccccc21)c1cccc([N+](=O)[O-])c1,21%
O=c1c(O)c(-c2ccccc2)oc2ccc3occc3c12,?
CCOC(=O)COc1ccc2c(=O)cc(-c3ccccc3)oc2c1,12%&-21%
Cn1nnnc1SCC1=C(C(=O)O)N2C(=O)[C@@H](NC(=O)[C@H](OC=O)c3ccccc3)[C@H]2SC1,-25%
Cn1cccc1C(=O)N1CCC2(CCN(C(=O)Nc3cccc(F)c3)CC2)CC1,-34%[inhibitor]
CNCCCCc1cnc(C)c2[nH]c3ccccc3c12,0%
CN1CCC[C@@H]1Cc1c[nH]c2ccc(CCS(=O)(=O)c3ccccc3)cc12,-12%
CCc1ccc2c(-c3cccc(Cl)c3)nc(=O)n(CC)c2n1,2%&-2%
O=C(c1cccc(F)c1)N1CCC2(CCN(Cc3nccs3)CC2)CC1,-50%[inhibitor]
COc1ccc(CN2CCCC(c3nc(-c4ccncc4)ncc3-c3ccccc3C)C2)c(OC)c1 (stereo unspecified),16%
COc1ncnc(NS(=O)(=O)c2ccc(N)cc2)c1OC,19%
CC(Oc1ccccc1)C(=O)N[C@@H]1C(=O)N2C(C(=O)OCC3CCCCC3)C(C)(C)S[C@H]12 (stereo partly specified),12%
# Other results:
SMILES,EPAC1 agonist
COc1cc(=O)n2c(c1C(=O)N(C)Cc1nonc1C)CCN(Cc1ccsc1)CC2,4%
CC(C)C[C@@H](CO)N1CCN(C)CCC1=O,16%
Nc1nc(NC2CC2)c2ncn([C@@H]3C=C[C@@H](CO)C3)c2n1,-15%
CN1Cc2sccc2C(c2ccc(O)c(O)c2)C1 (stereo unspecified),5%
O=C(NCC1CCC2(CCN(Cc3cccc4cccnc34)CC2)O1)c1ccco1 (stereo unspecified),-4%
O=C1CC(CC(=O)N2CC3CCCC2C3)(c2cccc(F)c2)C(=O)N1Cc1cccnc1 (stereo unspecified),-20%
COCC1CCCN(Cc2ccc3c(c2)CN(C(=O)c2cccnc2OC)CCO3)C1 (stereo unspecified),4%
COc1ccccc1C1CN(CC(=O)NCC2OCCc3ccccc32)Cc2ccccc2O1 (stereo unspecified),9%
O=P(O)(O)OC[C@H]1O[C@](O)(COP(=O)(O)O)[C@@H](O)[C@@H]1O,-22%
NCCCNCCCCNC(=O)C(O)NC(=O)CCCCCCN=C(N)N (stereo unspecified),23%

# Arranged by value in EPAC1 agonist (high to low): five from the list above.
SMILES,EPAC1 agonist
CC(C)C[C@@H](CO)N1CCN(C)CCC1=O,16%
COc1ccccc1C1CN(CC(=O)NCC2OCCc3ccccc32)Cc2ccccc2O1 (stereo unspecified),9%
COc1cc(=O)n2c(c1C(=O)N(C)Cc1nonc1C)CCN(Cc1ccsc1)CC2,4%
O=C(NCC1CCC2(CCN(Cc3cccc4cccnc34)CC2)O1)c1ccco1 (stereo unspecified),-4%
O=C1CC(CC(=O)N2CC3CCCC2C3)(c2cccc(F)c2)C(=O)N1Cc1cccnc1 (stereo unspecified),-20%

# Other results:
SMILES,EPAC1 agonist
CC(C)CN1CCCC2(CCN(C(=O)c3ccco3)CC2)C1,-28%
O=c1c(CCc2ccccc2)nc2cnc(Oc3ccccc3)nc2n1C[C@H]1CCCO1,?
CN(C)c1ncc2nc(-c3ccc(F)cc3)c(=O)n(Cc3ccc(F)cc3)c2n1,-38%[inhibitor]
C[C@@]12C(=O)OC(=O)[C@@]1(C)C1CCC2O1,-33%
CS(=O)(=O)NCc1ccccc1Br,12%
O=C(c1cccc(F)c1)N1CCC[C@@]2(CCN(c3ccncc3)C2)C1,-14%
CC(O)(COc1ccccc1)c1ccc2c(c1)CN(Cc1cccc3cccnc13)CCO2 (stereo unspecified),5%
CN(C)c1ccc(-c2cncnc2NCc2cccs2)cc1,6%
COC(=O)C1C(O)CC[C@H]2CN3CCc4c([nH]c5ccccc45)C3C[C@H]12 (stereo partly specified),15%
Cn1c(=O)c(-c2ccc(F)cc2)nc2cnc(N3CCOCC3)nc21,-30%[inhibitor]
Cc1cc(C(=O)Nc2cccc(-c3nc(CNC(=O)c4ccc[n+]([O-])c4)c(C)o3)c2)c(C)o1,1%
COc1ccc(C(=O)N2CCC[C@@]3(CCN(C)C3)C2)cc1,-67%[inhibitor]
CCN(CC)CCOC[C@H]1O[C@@H](O)[C@H](OCCN(CC)CC)[C@@H](O)[C@@H]1O,-19%
CC1=C(C(=O)O)N2C(=O)C(NC(=O)C(N)c3ccccc3)C2SC1 (stereo unspecified),18%
Cc1c(C(=O)N2CC3CCC2C3)sc2ncnc(NCCc3c[nH]c4ccccc34)c12 (stereo unspecified),3%
Cc1c(C(=O)N(C)C(C)C)sc2ncnc(NCCCN3CCOCC3)c12,-13%
Cc1ccc2nccc(/C=C/c3ccc(N(C)C)cc3)c2c1,112µM*
COc1cc2c(cc1OC)[C@H](C)N(CC1C(=O)O[C@@H]3C[C@@]4(C)CCC[C@H](C)[C@@]45OC5[C@H]13)CC2 (stereo partly specified),-10%

# Source: PubChem BioAssay

# This is a subset; the hit share may differ from the screen's.
